MARV entry inh – blocks Marburg virus binding to or entry into cells; 300,000 tested, 1.8% active; AID 540276; Potency, µM (doses to about 37.8 µM), without a hit: top-dose activity change, negative = inhibition, usual class: inhibitors; Marburg virus pseudotyped entry inhibition, cell reporter; control for the full effect not named in the record; about a third of the inactives were read at about 46 µM; active = well fitted inhibition curve with a large enough effect; inconclusive = small, poorly fitted or top-dose-only effect, or effect the other way; inactive = flat fitted curve, though single readings scatter; tested in HEK293 cells; about a fifth of its hits are not listed in these tables; also: % is scaled to controls: 0 for no effect and ±100 for the full control effect; luciferase read-out
2A StopGo – lowers the luciferase signal of an FMDV 2A StopGo reporter | human cells with a luciferase reporter of 2A StopGo recoding; control for the full effect not named in the record | Potency, µM (series often up to 57.9 µM), for the others: at the highest dose signal change, negative = less light | 410,000 tested, 1.2% active | AID 1159524; active = well fitted falling curve with a large enough effect; inconclusive = small, poorly fitted or top-dose-only effect; inactive = no such curve, though single readings can be large or run the other way; tested in HEK293T cells; also: % is scaled to controls: 0 for no effect and ±100 for the full control effect; nearly all actives have a fitted effect of over 45% in size; luciferase light after 4 h
Lassa entry inh – Lassa virus entry inhibition; Lassa virus pseudotype entry inhibition, cell reporter; control for the full effect not named in the record; Potency, µM (series often up to 37.9 µM), inactives show at the highest dose activity change, negative = inhibition, hits mostly inhibitors; 300,000 tested, 1.2% active; active means well fitted inhibition curve with a large enough effect; inconclusive means small, poorly fitted or top-dose-only effect, or effect the other way; inactive means flat fitted curve, though single readings scatter; tested in HEK293 cells; also: % is scaled to controls: 0 for no effect and ±100 for the full control effect; nearly all actives have a fitted effect of over 50% in size; luciferase read-out
Cruzain Triton – blocks cruzain activity in presence of Triton detergent; 200,000 tested, 0.43% active; AID 1478; Potency, µM, for inactives: max response, negative = inhibition, hits mostly inhibitors; purified cruzain, Z-FR-AMC fluorescence, 0.01% Triton;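 also: plate controls were neutral wells for no effect and buffer without enzyme for full effect; nearly all actives have a fitted effect of over 40% in size; top concentration of the series not given in the record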
Target sequence (P25779 123-467 limits assumed): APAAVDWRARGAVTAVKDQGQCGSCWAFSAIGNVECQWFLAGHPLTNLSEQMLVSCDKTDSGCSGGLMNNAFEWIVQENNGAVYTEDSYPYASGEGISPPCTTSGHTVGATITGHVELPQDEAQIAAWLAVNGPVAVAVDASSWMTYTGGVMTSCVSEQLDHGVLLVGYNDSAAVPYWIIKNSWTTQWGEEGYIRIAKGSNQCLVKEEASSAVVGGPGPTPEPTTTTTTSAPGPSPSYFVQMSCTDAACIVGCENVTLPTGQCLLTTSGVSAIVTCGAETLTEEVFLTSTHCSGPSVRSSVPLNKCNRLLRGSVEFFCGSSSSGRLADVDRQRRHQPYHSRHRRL
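15 min RT preincubation of 1.5 nM cruzain with compound, then 2 uM Z-FR-AMC added; kinetic AMC fluorescence, 60 s delta. Triton X-100 0.01%, pH 5.5.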
Cruzain noTriton – inhibitors of Trypanosoma cruzi cruzain without detergent. 200,000 tested, 2.3% active. AID 1476. Potency, µM, inactives show max response, negative = inhibition, hits mostly inhibitors. purified cruzain, Z-FR-AMC fluorescence, no detergent;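 also: plate controls were enzyme without inhibitor for no effect and buffer without enzyme for full effect; nearly all actives have a fitted effect of over 40% in size; top concentration of the series not given in the record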
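Purified cruzain at 1.5 nM, pre-incubated 15 min with compound at room temperature in 100 mM sodium acetate pH 5.5, 5 mM DTT, 0.00005% Triton X-100. Reaction started with 2 uM Z-FR-AMC; AMC fluorescence increase over 60 s gives rate.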
NS1 function inh – blocks influenza NS1 protein function. S. cerevisiae slowed by influenza A NS1, growth recovery by OD600. Potency, µM (titrated, usually from 46.1 µM), for inactives: top-dose activity, positive = more growth. 270,000 tested, 0.4% active; active means well fitted rising curve with a large enough effect; inconclusive means small, poorly fitted or top-dose-only effect; inactive means no such curve, though single readings can be large or run the other way; also: nearly all actives have a fitted effect of over 50% in size
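A cell-based growth assay was used: compounds that relieve NS1-induced slow growth of budding yeast raise OD600. Assay medium was yeast nitrogen base with ammonium sulphate and -URA supplement, pH 6.0, with 2% galactose.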
SARS PLpro yeast – inhibitors of SARS-CoV papain-like protease in yeast | 330,000 tested, 0.19% active | S. cerevisiae expressing SARS-CoV PLpro, growth rescue; control for the full effect not named in the record | Potency, µM (highest dose often 32.9 µM), without a hit: at the highest dose activity, positive = growth rescue | AID 485353; active means well fitted rising curve with a large enough effect; inconclusive means small, poorly fitted or top-dose-only effect; inactive means no such curve, though single readings can be large or run the other way; also: 0% is about no effect; nearly all actives have a fitted effect of over 55% in size; growth read by luminescence after 48 h
RE007 growth inh – less growth of the S. pombe RE007 Vpr strain; S. pombe RE007 Vpr strain, BacTiter-Glo ATP luminescence, 24 h; control for the full effect not named in the record; Potency, µM (doses to about 92.2 µM), without a hit: at the highest dose activity change, negative = less growth; 360,000 tested, 0.21% active; AID 651644; active = well fitted falling curve with a large enough effect; inconclusive = small, poorly fitted or top-dose-only effect; inactive = no such curve, though single readings can be large or run the other way;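 also: % is scaled to controls: 0 for no effect and ±100 for the full control effect; nearly all actives have a fitted effect of over 50% in size; the assay follows cell death caused by Vpr and the record does not say whether a fall means rescue or toxicity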
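Fission yeast strain RE007, carrying one chromosomally integrated HIV-1 vpr copy, was seeded at OD 0.01 in PMG+AL medium with 23 nL pinned compound. After 24 h at 30 °C and 99% humidity, viability was read by BacTiter-Glo luminescence.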
* marks the source's active call; other numbers are inactive results; ? = inconclusive; . = not tested or not shown; [ ] = remark or other dose. Unless noted, calls follow the shape of the dose curve; as a rule, active = well fitted curve in the direction sought with a large enough effect; inconclusive = small, poorly fitted or top-dose-only effect, or another doubt; inactive = no such curve, though single readings can be large; an effect the other way counts as inactive or inconclusive. Potency is read from the fitted curve at half-maximal effect.

SMILES | MARV entry inh | 2A StopGo | Lassa entry inh | Cruzain Triton | Cruzain noTriton | NS1 function inh | SARS PLpro yeast | RE007 growth inh
CC(C)COC(=O)Nc1ccccc1C(=O)N1CCOCC1 | 15% | -9% | 3% | 3.8% | -6% | ? | 3% | -5%
O=S(=O)(Cc1c(F)cccc1Cl)c1ncn[nH]1 | -3%[46.1 µM] | -3% | 19%[46.1 µM] | . | . | -2% | -1% | 2%
O=C(O)C(Cc1ccccc1)NC(=O)C(Cc1ccccc1)NC(=O)C12CC3CC(CC(C3)C1)C2 (stereo not drawn) | -9%[46.1 µM] | -7% | 11% | . | . | . | . | 3%
COc1ccc2c(c1)CC=C1C2CCC2(C)C(=O)C(=NO)CC12 (stereo not drawn) | ? | -4% | 23% | . | . | . | . | -13%
CN1C(=O)NC(=O)[C@]2(Cc3ccccc3N3CCN(c4ccccc4)CC32)C1=O (stereo partly drawn) | -1% | 19% | -8% | -5.9% | ? | 12% | -3% | -2%
COc1c2ccccc2c(OC)c2ccccc12 | 4%[46.1 µM] | 26% | 15%[46.1 µM] | . | . | . | -3% | -26%
COc1ccc(CCN2CC(C(=O)NCCc3ccccc3C)CCC2=O)cc1 (stereo not drawn) | . | -4% | . | . | . | -11% | -1% | -11%
Cc1ccccc1-c1nc(CS(=O)(=O)CC(=O)NC2CC2)c(C)o1 | . | 2% | . | . | . | 3% | -2% | -6%
Cc1onc(-c2ccccc2Cl)c1C(=O)NC(C)c1ccccc1 (stereo not drawn) | . | 0% | . | . | . | ? | 3% | 0%
Cc1ccc(C(=O)NNC2=Nc3cc([N+](=O)[O-])ccc3OC2)cc1 | 4%[46.1 µM] | -18% | ? | . | . | -4% | 0% | -16%
Cc1[nH]c2ccccc2c1/C=N\NC(=O)Cn1nnc(-c2ccccc2)n1 | 3% | -2% | 2% | -0.4% | 7.9µM* | 15% | 3% | 3%
Oc1ccc(F)c2cccnc12 | ? | 0% | 20% | . | . | -2% | 0% | 1%
CCCCn1nnc(NC(=O)COc2cc(C)ccc2C(C)C)n1 | 4% | 15% | 3% | -13% | 16% | -19% | -16% | 10%
Cc1cc(C)cc(C(=O)NC(CC(N)=O)c2ccc(NC3CCCCCC3)c([N+](=O)[O-])c2)c1 (stereo not drawn) | . | -13% | . | . | . | 6% | 2% | -12%
CCOC(=O)c1c(C)[nH]c(C)c1C(=O)COC(=O)/C=C/c1cccc(F)c1 | 12% | 0% | 27% | -12% | -1% | -18% | 14% | -11%
COc1cc(C(=O)Nc2ccc(S(=O)(=O)Nc3ncccn3)cc2)c([N+](=O)[O-])cc1OC | -3% | -12% | -7% | . | . | . | -7% | 2%
FC(F)(F)c1cnc(N2CCSCC2)c(Cl)c1 | 15%[46.1 µM] | -4% | -1%[46.1 µM] | . | . | 1% | 1% | 1%
CCOC(=O)NC1(C(F)(F)F)C(=O)NC(C)=C1C(=O)OC (stereo not drawn) | -6% | . | -2% | 0.2% | -1% | -8% | 9% | 13%
Cc1ccc(S(=O)(=O)Nc2cc(Cl)c(O)c3ncccc23)cc1 | ? | -12% | ? | . | . | -149% | ? | ?
CCOC(=O)C1CCCN(C(=O)c2ccc(CS(=O)(=O)Cc3ccccc3C)o2)C1 (stereo not drawn) | ? | -23% | 0% | -0.8% | 13% | ? | -2% | 0%
OCC1(Cc2ccc(Cl)cc2)CCN(CCCc2ccccc2)CC1 | ? | -17% | ? | . | . | -3% | 1% | -23%
COc1ccccc1OCC(=O)Nc1ccc(S(=O)(=O)NC(C)=O)cc1 | 7% | . | -6% | -1.9% | 8% | -1% | 1% | -3%
O=C(CN1CCN(Cc2ccc(F)cc2)CC1)Nc1nc2ccccc2s1 | . | ? | . | . | . | 13% | -6% | -6%
COc1ccccc1-n1c(SCC(=O)c2ccc(O)cc2O)nc2cc([N+](=O)[O-])ccc21 | 2.2µM* | ? | 4% | -1.7% | 13µM* | 4% | -61% | 6%
C=CCn1c(SCC(=O)NCC2CCCO2)nnc1-c1ccncc1 (stereo not drawn) | ? | -13% | 15% | . | . | . | 0% | 11%
O=C(O)[C@H]1Cc2ccccc2CN1S(=O)(=O)c1ccc(F)cc1 | . | -9% | . | . | . | -3% | 0% | 19%
CCOC(=O)C1CCN(C(=O)CN(Cc2ccc(Cl)cc2)S(C)(=O)=O)CC1 | 10% | ? | -24% | 3.6% | ? | -4% | 2% | -5%
O=C(Cn1ncc2c3ccccc3n(Cc3ccc(F)cc3)c2c1=O)N1CCN(c2ncccn2)CC1 | ? | ? | ? | -8.1% | ? | 17% | -6% | 8%
Cc1cc(-n2c(/C=C/c3cccs3)nc3ccccc3c2=O)ccc1Br | . | -23% | -6%[46.1 µM] | 4.5% | -7% | . | . | .
COc1ccc(C(=O)N(Cc2cc(OC)c(OC)c(OC)c2)C2CCS(=O)(=O)C2)cc1Cl (stereo not drawn) | -10%[46.1 µM] | -6% | 3%[46.1 µM] | 1.8% | -1% | . | . | .
CCOc1ccc(CN2CCN(Cc3ccc4c(c3)c3ccccc3n4CC)CC2)cc1 | . | ? | ? | 1.7% | 8% | . | . | .
Cc1ccc(C)c(OCC(=O)Nc2cc(C)on2)c1 | ? | 40%[activator] | 21% | -0.1% | -19% | 3% | 18% | 2%
CCc1ccc(OCc2nnc(SCC(=O)NCC3CCCO3)n2C)cc1 (stereo not drawn) | 11% | 6% | 2% | . | . | -10% | 7% | -4%
Cc1nn(CCC#N)c(C)c1Oc1ccccc1O | . | -20% | . | . | . | -12% | -5% | -9%
COc1ccccc1CNC(=O)CSc1nnc2c(Cl)cc(C(F)(F)F)cn12 | -7% | -3% | 28% | -3.2% | -10% | -13% | -2% | 4%
COC(=O)C(Cc1cccc(C)n1)(c1ccccc1)c1ccccc1 | ? | -21% | 8%[46.1 µM] | . | . | -11% | -2% | -1%
COC(=O)Cc1ccc(NC(=S)N2CCN(CCO)CC2)cc1 | -5% | 1% | 3% | . | . | . | . | 1%
CCOC(=O)C1(Cc2ccc(Cl)cc2)CCN(C(=O)C2CCCO2)CC1 (stereo not drawn) | 12%[46.1 µM] | -11% | ? | . | . | -6% | 1% | 2%
CCN1CCN(S(=O)(=O)c2ccc(Cl)c(C(=O)Nc3ccccc3N3CCCC3)c2)CC1 | -3% | -1% | -10% | . | . | . | -13% | 1%
Cc1cccc(C(=O)Nc2nc(-c3nnn(-c4cc(F)ccc4F)c3C)ns2)c1 | . | -16% | ? | 0.2% | 6% | . | . | .
C/C(=N\Nc1nc(N)cc(Cl)n1)c1cccc([N+](=O)[O-])c1 | 3% | 32%[activator] | -15%[14.3 µM] | 3.0% | 1% | -12% | -1% | 3%
O=C1c2cccc3c(O)ccc(c23)C(=O)N1Cc1ccccc1 | 10% | ? | 9% | 3.0% | -24% | -1% | -10% | 17%
O=C(c1ccccc1)N1CCN(C2c3cccc4cccc(c34)C2NS(=O)(=O)c2ccccc2)CC1 (stereo not drawn) | ? | ? | ? | 1.3% | ? | ? | 5% | -17%
CCN(CC(=O)Nc1ccc(NC(C)=O)cc1)CC(=O)Nc1cccc(Cl)c1 | -1%[46.1 µM] | -11% | -18% | . | . | -1% | 1% | -5%
CN(C(=O)C1CCCCC1)C1(C)CCS(=O)(=O)C1 (stereo not drawn) | 2%[46.1 µM] | -3% | 5% | . | . | . | 2% | 1%
CC(Sc1ncn[nH]1)C(=O)NCc1ccccc1 (stereo not drawn) | 14%[46.1 µM] | -27% | -2%[46.1 µM] | . | . | 17% | 8% | 21%
Cn1c(=O)n(C)c2cc([N+](=O)[O-])c(N3CCN(C(=O)c4cccc(Cl)c4)CC3)cc21 | ? | 35µM* | ? | -3.2% | ? | -9% | 26% | -3%
O=S(=O)(/N=C(\Sc1ccc(Cl)cc1)c1ccccc1)c1ccccc1 | -10% | ? | 3% | 1.0% | -5% | -4% | 5% | 17%
O=S(=O)(NCC1CCCN(Cc2ccccc2O)C1)c1cccc2cccnc12 (stereo not drawn) | -18% | -2% | 19% | . | . | -9% | -7% | -11%
CC(=O)Nc1ccc(NC(=O)c2ccc(COc3ccccc3)cc2)cc1 | . | -2% | . | . | . | 5% | 2% | 5%
CCn1nc(C)c(NS(=O)(=O)c2ccc(C)cc2)c1C | ? | -22% | -34% | 0.5% | 2% | -1% | -1% | 7%
COc1cccc(Nc2c(F)c(F)c(F)c(F)c2C(=O)O)c1 | 5% | 6% | 5% | 0.7% | 3% | 8% | 5% | -9%
CCOc1ccc(/C(C)=N\NC(=O)Cc2ccccc2)cc1 | . | -12% | . | . | . | -9% | 13% | 3%
O=C(Nc1ccn(Cc2ccc(F)cc2)n1)c1ccncc1 | -5% | ? | 1% | -0.9% | -7% | 2% | 0% | -3%
CCOC(=O)c1cnc(SC)nc1Sc1cc(Cl)ccc1Cl | ? | -20% | -19% | 2.3% | ? | 4% | 3% | 17%
COc1ccccc1NC(=O)c1coc(=O)c(Br)c1 | 1%[46.1 µM] | ? | 13% | . | . | 0% | -4% | -10%
Cc1ccc(N2C(=O)C(O)(C(F)(F)F)C3=C2CC(C)(C)CC3=O)cc1 (stereo not drawn) | 10% | 36%[activator] | ? | -2.5% | 17% | 11% | 6% | -7%
CC(=O)Nc1ccc(C(=O)Nc2ccncc2)cc1 | . | 1% | . | . | . | -14% | 0% | -13%
CCC(Sc1nc2cc3c(cc2c(=O)n1Cc1ccco1)OCO3)C(=O)Nc1cccc(OC)c1 (stereo not drawn) | ? | 14% | 0% | 3.9% | ? | 2% | -13% | -15%
Cn1nc(-c2ccccc2)cc1NC(=O)c1ccccc1 | -2% | 12% | -1% | . | . | -9% | 0% | -12%
O=C(Nc1ccc(F)c(Cl)c1)N1CCCCCC1 | ? | 26% | ? | . | . | -25% | 1% | 4%
O=C(NC1CCCCC1)C(c1ccc2ncccc2c1)N(Cc1ccc2c(c1)OCO2)C(=O)c1ccc2c(c1)OCCO2 (stereo not drawn) | ? | 5% | 12% | -3.6% | 18% | 19% | -16% | 0%

Bioassay records from PubChem.
